Source: PubChem BioAssay (ICCB-Longwood Screening Facility, Harvard Medical School)
Anaer choline gr – inhibitors of anaerobic choline-dependent gram-negative bacterial growth; Gram-negative bacterium anaerobic choline minimal medium, absorbance growth; active compounds read low; many inactives read as strong as hits in the columns shown; calls only; hit rate 0.2% among 55,000;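 active = growth z-score on choline under -2 at 7 or 20 h with little or no fall on glycerol, limits in tiers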;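 also: stock transfer was 300 nL into about 50 µL; the organism is E. coli; final concentration not given here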
Anaer choline gr early – further read-out of Anaer choline gr, marked with its call; z-score; measured here: choline growth z-score, timepoint 1;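 score of optical density at 7 h as mean of two plates; lower means less growth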
An asterisk follows results filed as active; i = inactive; & = joins results of further samples. A portion of the library. The share of hits here may be higher or lower than overall.

cpd | SMILES | Anaer choline gr | Anaer choline gr early
1 | Cc1nc(-n2[nH]c(C)c(Cc3ccc(Cl)cc3)c2=O)sc1C(=O)N1CCC(C)CC1 | i | 0.12
2 | CC(C)CCNC(=O)c1cc2c(n(-c3ccc(F)cc3)c1=O)CCCC2=O | i | -0.74
3 | CCn1c2c(c(SCc3cccc(C)c3)nc1=O)CCC2 | i | 0.01
4 | Cn1c(=O)c2cc(C(=O)NCCC3=CCCCC3)sc2n(C)c1=O | i | 1
5 | Cc1ccc(NC(=O)CSc2cc(C)c3cc(S(=O)(=O)N4CCCCC4)ccc3n2)cc1Cl | i | 1.6
6 | CCC(=O)Nc1cccc(N2CCn3c(nc4ccccc43)C2)c1 | i | 0.31
7 | O=C(CCc1nnc2ccc(NCc3ccc4c(c3)OCO4)nn12)NCC1CCCO1 (stereo not given) | i | 0.11
8 | COc1cc([C@@H]2c3cc4c(cc3[C@H](O)C3COC(=O)[C@@H]32)OCO4)cc(OC)c1OC (stereo not given in full) | i | 0.66
9 | CC(Oc1ccccc1F)C(=O)Oc1cccc(-n2cnnn2)c1 (stereo not given) | i | -0.81
10 | Cc1nnc(N2CCCC(C(=O)N3CCN(c4ccccn4)CC3)C2)c2nn(-c3ccccc3)c(C)c12 (stereo not given) | i | 0.76
11 | O=C(Cc1csc(NC(=O)Nc2ccccc2)n1)NC1CCCC1 | i | 2
12 | CN1[C@@H]2CC[C@H]1CC(OC(=O)C(CO)c1ccccc1)C2 (stereo not given in full) | i | -0.94
13 | CCCNC(=O)Nc1cccc(-c2noc(-c3cccc(Br)c3)n2)c1 | i | 0.16
14 | COc1ccc(-c2cc3c(=O)[nH]nc(SCC(=O)Nc4ccc(C)cc4)n3n2)cc1 | i | 0.82
15 | O=C(CN1c2ccccc2NC2=C(C(=O)CCC2)C1c1cccs1)NCC1CCCO1 (stereo not given) | i | 0.07
16 | O=c1[nH]c(SCc2cc3c(cc2Cl)OCO3)nc2nc[nH]c12 | i | 0.25
17 | Cc1cc(C2CCCN2C(=O)Nc2ccc(F)cc2F)no1 (stereo not given) | i | 0.48
18 | O=C(CN1C(=O)C2CCCCN2c2ccc(C(=O)N3CCCC3)cc21)NCC1CCCO1 (stereo not given) | i | -0.26
19 | COc1ccc(-c2noc(CN3CCC(C(=O)Nc4cccc(Cl)c4)CC3)n2)cc1OC | i | -0.91
20 | Cc1onc(-c2ccccc2)c1C(=O)N[C@@H]1C(=O)N2[C@@H]1SC(C)(C)[C@@H]2C(=O)O | i | 0.91&0.74
21 | Cc1ccc(S(=O)(=O)Nc2ccc(N3CCn4c(nc5ccccc54)C3)cc2C)cc1 | i | 0
22 | CC(C)NC(=O)CNC(=O)C1(C)Cn2c(cc3ccccc32)C(=O)N1C (stereo not given) | i | 0.3
23 | C=CCn1c(SCC(=O)N2CCCc3ccccc32)nc2c([nH]c3ccccc32)c1=O | i | 0.58
24 | CCCOc1ccc(-c2nn3c(=O)c(NC(=O)c4ccc(Cl)cc4)cnc3o2)cc1 | i | -0.41
25 | COC(=O)c1cc2c(cc1NC(=O)C1CCCN(c3nc4cccnc4s3)C1)OCO2 (stereo not given) | i | 0.25
26 | Cc1ccc(C2=CC(c3ccc(C)cc3)n3nc(NS(=O)(=O)c4ccc(C)cc4)nc3N2)cc1 (stereo not given) | i | -0.06
27 | O=C(C1CCCO1)N1CCCN(c2ccc(=O)n(-c3ccccc3)n2)CC1 (stereo not given) | i | -1.2
28 | CCCCC(=O)NCCc1c(Cc2ccccc2)[nH]c2ccccc12 | i | -0.86
29 | Cc1nc(-c2csc(S(=O)(=O)NC3CC3)c2)no1 | i | -0.49
30 | O=C(NC1CCCc2ccccc21)c1cccc(Nc2ncc(-c3ccc(F)cc3)cn2)c1 (stereo not given) | i | -0.29

(cont.)
cpd | SMILES | Anaer choline gr | Anaer choline gr early
31 | CC(=O)Nc1ccc(C(=O)NC(=NCc2ccncc2)Nc2ccc3c(c2)OCO3)cc1 | i | -0.49
32 | O=C(O)C1CCN(c2cnc3ccccc3n2)CC1 | i | -0.7
33 | Cc1noc(C)c1C(=O)N1CCCC1c1cccc(F)c1 (stereo not given) | i | -0.26
34 | Cc1ccccc1-n1nnnc1C(C)(C)N | i | -0.29
35 | C=CCOc1ccc(C2CC(=O)Nc3c2c(C)nn3-c2nc3ccc(OCC)cc3s2)cc1 (stereo not given) | i | 0.44
36 | COc1ccc(Cl)cc1NC(=O)C1=Cc2ccc(C)cc2OC=C1 | i | 0.96
37 | CCc1cnc2c(c1SCCC(C)C)c(=O)n(C)c(=O)n2C | i | -1.3
38 | CCC1CCCCN1c1cc(C)nc2nc(-c3ccc(C)cc3)nn12 (stereo not given) | i | -0.15
39 | CCN1C=C(C(=O)OC)C(C)=NS1(=O)=O | i | -0.48
40 | Cc1cc(C)n(C(=O)c2scc(-c3ccccc3)c2S(=O)(=O)N(C)c2ccc(F)cc2)n1 | i | -0.67
41 | O=C(O)c1cc([N+](=O)[O-])ccc1NCCCc1ccccc1 | i | 0.6&0.05&0.06
42 | Cc1cc(C)n(CC(=O)NC2CCCC2)c(=O)c1S(=O)(=O)c1ccc(Cl)cc1 | i | -0.86
43 | COc1cccc(CNC(=O)CCC(=O)N2Cc3cccc(OC)c3Oc3ncccc32)c1OC | i | -0.48
44 | O=C(c1ccc2cnn(Cc3cccc(F)c3)c2c1)N1CCOCC1 | i | 0.62
45 | CCn1nc(C)c2c1c(=O)n(CCc1ccccc1)c(=O)n2Cc1ccccc1C | i | 0.33
46 | O=C1NC2(CCCC2)NN1c1ccc(Br)cc1 | i | -1.1
47 | Cc1ccc(N2CC(c3nc(-c4ccc5c(c4)[nH]c(=O)c(=O)n5C(C)C)no3)CC2=O)cc1 (stereo not given) | i | 0.03
48 | Cc1cc(=O)[nH]c2nnc(SCC(=O)c3ccc(Cl)cc3)n12 | i | -1.3
49 | Cc1nnc(NC(=O)CSc2ccc3nnc(-c4ccc(F)cc4)n3n2)s1 | i | 0.81
50 | CN(C)S(=O)(=O)c1ccc2c(c1)cc(C(=O)O)n2C | i | 0.7
51 | COc1ccc(NC(=O)c2ccccc2)cc1CN1CCn2c(nc3ccccc32)C1 | i | 0.32
52 | COc1cccc(C(=O)N2CCN(S(=O)(=O)c3ccc4c(c3)NC(=O)CO4)CC2)c1 | i | -0.44
53 | CC1(C(=O)NC2CCCC2)Cn2cnc(C(=O)Nc3cccc(Cl)c3)c2C(=O)N1C1CC1 (stereo not given) | i | 0.86
54 | CCCCN(C)C(=O)c1ccc(Nc2ccnc(-c3cccc(C)c3)n2)cc1 | i | 1.3
55 | CCCc1cc(C2CCCN2S(=O)(=O)CC)no1 (stereo not given) | i | -0.01
56 | O=C(COc1ccccc1)N1CCC(Nc2ncnc3c2CCC3)C1 (stereo not given) | i | 0.08
57 | Cc1ccc(Cc2nc(CCNC(=O)c3ccc(Cl)cc3)n[nH]2)cc1 | i | -0.31
58 | COc1cc(NC(=O)C2CCC(=O)N2S(=O)(=O)c2ccc(F)cc2)cc(OC)c1 (stereo not given) | i | 0.94
59 | Cc1ccc(C2=NS(=O)(=O)N(C)C(C(=O)Nc3ccc4c(c3)OCO4)=C2)cc1 | i | 0.79
60 | CCOC(=O)C(C)NC(=O)CCc1c(C)nc2c(c(C)nn2-c2ccc(C)c(C)c2)c1C (stereo not given) | i | 1.2

In a second layout: results already given.
Results follow in this order: Anaer choline gr | Anaer choline gr early
(50) CN(C)S(=O)(=O)c1ccc2c(c1)cc(C(=O)O)n2C
    i | 0.7
(51) COc1ccc(NC(=O)c2ccccc2)cc1CN1CCn2c(nc3ccccc32)C1
    i | 0.32
(52) COc1cccc(C(=O)N2CCN(S(=O)(=O)c3ccc4c(c3)NC(=O)CO4)CC2)c1
    i | -0.44

Going on with the list.
cpd | SMILES | Anaer choline gr | Anaer choline gr early
61 | CCn1cnc(S(=O)(=O)N2CCC(C(=O)NCCC3=CCCCC3)CC2)c1 | i | -0.37
62 | COc1ccc(C2CC(=O)Nc3c2c(C)nn3-c2ccc3nncn3n2)cc1Br (stereo not given) | i | -0.69
63 | O=C(CSc1nnc2c3ccccc3nc(-c3ccccc3)n12)NC1CCCCC1 | i | 0.31
64 | CN(C)CCNc1nc(Nc2cccc(F)c2)c2cnn(-c3ccccc3)c2n1 | i | 0.07
65 | CC(Sc1nc2c(c(=O)[nH]1)CCCC2)C(=O)Nc1ccc(Br)cc1 (stereo not given) | i | 0.62
66 | O=C(NC1CC1)c1cc2ccc3cccnc3c2[nH]1 | i | -1.3
67 | CNCC(=O)NCc1nc2cccnc2n1CCOC | i | -2
68 | Cc1ccc(C)c(S(=O)(=O)N2CCN(c3cc(=O)n4nc(-c5ccccc5C)sc4n3)CC2)c1 | i | -2.1
69 | Cc1ccc(C)c(CS(=O)(=O)N2CCC(CN3CCCC(C)C3)CC2)c1 (stereo not given) | i | -1.6
70 | CC(C)(C)c1ccc(S(=O)(=O)N2CCc3nc(N4CCCCC4)ncc3C2)cc1 | i | 0.24
71 | COc1ccc(C2c3c(n(C)c4ccccc34)C(=O)N2CC(=O)NCCc2cccc(OC)c2)cc1 (stereo not given) | i | 0.45
72 | CC(=O)N1c2ccccc2CC1C(=O)N1CCN(c2ccccn2)CC1 (stereo not given) | i | 0.23
73 | Cc1ccc(S(=O)(=O)Nc2cccc(C(=O)N3CCCC(C(=O)NCC4CCCO4)C3)c2)c(C)c1 (stereo not given) | i | -0.5
74 | C=CCOc1cc(C2CC(=O)Nc3c2c(C)nn3-c2nncc(-c3ccc(OC)cc3)n2)ccc1OC (stereo not given) | i | 1
75 | CN(C)c1ccc(C(CNC(=O)C2CC2)N2CCN(c3ccc(F)cc3)CC2)cc1 (stereo not given) | i | -0.24
76 | COc1ccc(NC(=O)Cn2nc3c4sc(N(C)C)nc4ncn3c2=O)cc1Cl | i | 0.21
77 | COc1ccc(CNC(=O)Cn2ccn3nc(-c4ccc5c(c4)OCO5)cc3c2=O)cc1OC | i | 0.08
78 | Cc1cc2c(cc1C)N=C(c1ccc(F)cc1)CC(SCC(=O)Nc1ccc3c(c1)OCO3)=N2 | i | 0.86
79 | CCc1nnc(-c2coc(S(=O)(=O)N3CCC(C)CC3)c2)o1 | i | -0.91
80 | CCCCC(=O)Nc1ccc2nc(SCCOc3ccccc3)sc2c1 | i | 1
81 | Cc1ccc(-c2nc(CSCC(=O)Nc3ccc(C(C)C)cc3)no2)cc1 | i | -0.8
82 | CCc1ccc2c(c1)C(O)(c1c[nH]c3ccccc13)C(=O)N2 (stereo not given) | i | -0.71
83 | O=C(Nc1cc(-c2cccc(Cl)c2)nn1-c1ccccc1)c1ccccc1 | i | 0.28
84 | Cn1c(SCc2nc(-c3ccc(Br)cc3)no2)nc2cc3c(cc2c1=O)OCO3 | i | 0.69
85 | CCn1c(=O)c2c(C(=O)Nc3ccc(C)c(F)c3)cc(=O)n(CC)c2n(C)c1=O | i | 0.1
86 | O=C(CN1CCN(Cc2ccccc2)C(=O)C1=O)N1CCN(Cc2ccccc2)CC1 | i | -0.57
87 | Cc1ccc(NC(=O)N2CCN(Cc3cc(=O)n4nc(-c5ccccc5)sc4n3)CC2)cc1Cl | i | -0.36
88 | Cc1ccc2c(cnn2C(=O)CCCC(=O)NCc2ccccc2C)c1 | i | 0.18
89 | CCN(C(=O)C1CCN(S(=O)(=O)c2c(C)[nH]c(C)c2C(=O)N2CCCCC2)CC1)c1ccccc1 | i | 1.3
90 | Cc1ccc(OCc2nc3c4ccccc4ncn3n2)cc1 | i | 0.48

Nos. 88–90, reprinted for reference:
cpd | SMILES | Anaer choline gr | Anaer choline gr early
88 | Cc1ccc2c(cnn2C(=O)CCCC(=O)NCc2ccccc2C)c1 | i | 0.18
89 | CCN(C(=O)C1CCN(S(=O)(=O)c2c(C)[nH]c(C)c2C(=O)N2CCCCC2)CC1)c1ccccc1 | i | 1.3
90 | Cc1ccc(OCc2nc3c4ccccc4ncn3n2)cc1 | i | 0.48

The list continues:
cpd | SMILES | Anaer choline gr | Anaer choline gr early
91 | Cc1cc(C)c(NC(=O)C2Nc3cc(F)ccc3S(=O)(=O)N2)c(C)c1 (stereo not given) | i | -0.66
92 | CC(=O)N1CCc2cc(N3CC(C(=O)N4CCC5(CC4)OCCO5)CC3=O)ccc21 (stereo not given) | i | -0.84
93 | C[C@@H]1C[C@H]2[C@@H]3CCC4=CC(=O)C=C[C@]4(C)[C@@]3(F)[C@@H](O)C[C@]2(C)[C@@]1(O)C(=O)CO | i | 0.01&0.14
94 | Cc1nn(C)c(C)c1CNc1nc(C2CC2)nc2c1CCC2 | i | 0.37
95 | CCc1nnc(-c2coc(S(=O)(=O)N3CCCCC3C)c2)o1 (stereo not given) | i | -0.03
96 | COc1cccc(CNC(=O)CSc2nc3cc(-c4ccccc4)sc3c(=O)n2C)c1OC | i | 1.2
97 | O=C(C1CC1)N1CCC(c2nc(-c3ccc(F)cc3)no2)CC1 | i | -0.51
98 | Cc1ccc(-c2ccc(N3CCC(C(=O)NC(C)c4ccc(C)cc4)CC3)nn2)cc1 (stereo not given) | i | 1.9
99 | CC(=O)n1c(=O)c2ccccc2c(=O)n1-c1ccccc1 | i | -1
100 | CC(=O)N1CCN(c2cc(-c3nc(-c4ccccc4)no3)c3ccccc3n2)CC1 | i | 0.98
101 | O=C(CSc1nnc2n(CC3CCCO3)c(=O)c3sccc3n12)Nc1ccc2c(c1)OCO2 (stereo not given) | i | 1.6
102 | CCCCN1C(=O)c2ccccc2CC1(C)C(=O)NCc1ccccc1OC (stereo not given) | i | 0.31
103 | Cc1nnc(SCC(=O)N2c3ccccc3CCc3ccccc32)s1 | i | -0.48
104 | CCOc1ccc(-c2nc(CN3CCN(C(=O)Nc4cc(OC)ccc4OC)CC3)c(C)o2)cc1 | i | -0.04
105 | Cc1noc(C)c1S(=O)(=O)NCc1nc2cccnc2n1C1CC1 | i | -2.3
106 | CN1C(=O)C(C)(C)c2cc(S(=O)(=O)N(C)CC(=O)N3CCN(c4ccccn4)CC3)ccc21 | i | 0.32
107 | CCOc1ccccc1C(=O)NCC(=O)NCc1cscn1 | i | -0.54
108 | COc1ccc(OC)c(-c2nc(C(N)=O)c3c(n2)n(-c2ccc(F)cc2)c(=O)n3C)c1 | i | 0.6

Along the list, quoted from above.
Compounds 95 to 98 in Anaer choline gr, in turn: i, i, i, i

Quoted from the listing.
#102 | Anaer choline gr early = 0.31
#52 | Anaer choline gr early = -0.44
